Vaccinia mCherry – qHTS for Stage-Specific Inhibitors of Vaccinia Orthopoxvirus: mCherry Reporter Primary qHTS; Vaccinia virus mCherry reporter infection, fluorescence; about a quarter of the inactives have no number; Potency, µM (doses to about 36.5 µM), inactives show at the highest dose activity change, negative = inhibition, hits mostly inhibitors; 310,000 tested, 0.63% active; AID 720579, 2013; active = well fitted inhibition curve with a large enough effect; inconclusive = small, poorly fitted or top-dose-only effect; inactive = no such curve, though single readings can be large or run the other way; tested in A549 cells; further: nearly all actives have a fitted effect of over 35% in size; inactives centre near -10
VACV Venus inh – qHTS for Stage-Specific Inhibitors of Vaccinia Orthopoxvirus: Venus Reporter Primary qHTS; Vaccinia virus Venus reporter expression, fluorescence; Potency, µM (highest dose often 36.5 µM), without a hit: at the top dose activity change, negative = inhibition, actives largely listed as inhibitors; 330,000 tested, 0.46% active; AID 720580, 2013; active means well fitted inhibition curve with a large enough effect; inconclusive means small, poorly fitted or top-dose-only effect; inactive means no such curve, though single readings can be large or run the other way; tested in A549 cells; further: nearly all actives have a fitted effect of over 30% in size; inactives centre near -10
An asterisk follows results filed as active; i = inactive; ? = inconclusive; . = not tested or not shown; & = joins results of further samples; [ ] = another dose, or the depositor's remark. On the % scale 0 is the no-effect control and ±100 the full control effect; potency means the concentration at half of the fitted maximal effect.

A first look, two compounds:
The line under a structure holds: Vaccinia mCherry | VACV Venus inh
CC(=O)c1cnc(Nc2ccc(C)cc2)s1
→ -13% | -19%
COc1ccc(CN2CC(C(=O)NCCCN3CCCCC3)CC2=O)cc1 (stereo not given)
→ -14% | -8%

This part in full (from the top)
The line under a structure holds: Vaccinia mCherry | VACV Venus inh
CC(=O)c1cnc(Nc2ccc(C)cc2)s1
→ -13% | -19%
COc1ccc(CN2CC(C(=O)NCCCN3CCCCC3)CC2=O)cc1 (stereo not given)
→ -14% | -8%
CCO[C@@H]1OC(C(=O)N2CCN(C)CC2)=C[C@H](C2CCCCC2)[C@H]1CCCO
→ i | -18%
COc1ccc(-c2nc(C)c(CCNC(=O)c3ccc(C(F)(F)F)cc3)s2)cc1OC
→ ? | -23%
CCN(CC)CCNC(=O)c1c(O)c2c([nH]c1=O)CCCC2
→ i | -19%
C=CCN(C(=O)Nc1ccc(OC)cc1)c1nnc(-c2ccncc2)s1
→ i | -9%
N#CC1=C(N)Oc2n[nH]c(-c3ccc(F)cc3)c2C1c1cccnc1 (stereo not given)
→ -3% | -6%
Cc1ccc(OCC(=O)NCCc2nc3ccccc3[nH]2)c(C)c1
→ -18% | -9%
COc1cccc(NC(=O)c2ccc3c(SCC(=O)O)c4c(nc3c2)CCCC4)c1
→ -2% | -2%
CSc1nnc(-c2cc3ccccc3cc2O)n1C
→ . | -19%
Nn1c(CSc2nc3ccccc3o2)nnc1CSc1nc2ccccc2o1
→ i | -9%
CCOC(=O)N1CCN(CCC(=O)Nc2cc([N+](=O)[O-])ccc2OC)CC1
→ -8% | -4%
CCCCC(=O)NC(c1ccc(Cl)cc1)c1ccc2cccnc2c1O (stereo not given)
→ 6.3µM* | ?
CSC1=C(C#N)C(=O)NC(c2ccc(Cl)cc2)S1 (stereo not given)
→ -6%[7.34 µM] | -2%[7.34 µM]
CCOc1ccc([N+](=O)[O-])c(N)c1
→ i | -9%
CC(C)CN(c1ccccc1)S(=O)(=O)c1nnc(NC(=O)C2CCCCC2)s1
→ -6% | -6%
Cc1cc2cc(CNS(=O)(=O)c3ccc4ccccc4c3)ccc2n1C
→ -10% | 15%
Cc1cccc(OCC(=O)N/N=C/c2ccccc2C(=O)O)c1
→ -4% | -8%
CC(=O)Nc1ccc(C2=NN(c3ccccc3)C(c3ccccc3)C2)cc1 (stereo not given)
→ ? | -27%
COc1ccccc1OCC(=O)N/N=C(\C)c1ccc2ccccc2c1
→ ? | -30%
COc1ccc(CN2C(=O)C(CC(=O)NCCN3CCOCC3)CC(C(=O)N3CCCCCC3)=C2C)cc1 (stereo not given)
→ -12% | -11%
Cc1cnc(NC(=O)c2ccc(F)c(S(=O)(=O)N3CCOCC3)c2)s1
→ -18% | -18%
COC(=O)N1C(=O)[C@@](c2ccccc2)(C2CCCC2)N1C(=O)OC
→ ? | ?
O=C(Nc1nnc([C@H]2C[C@H](O)[C@@H](CO)O2)s1)c1cccc(Cl)c1
→ -9% | -1%
COc1ccccc1/C=C/CN1CCC(Oc2ccc(C(=O)N3CCCC3)cc2)CC1
→ -2% | -14%
COc1cccc(NC(=O)C2CCN(c3nc4ccccc4nc3C(F)(F)F)CC2)c1
→ -5% | -4%
N#Cc1cccc(NC(=O)C2CCN(S(=O)(=O)c3ccc4[nH]c(=O)ccc4c3)CC2)c1
→ 8% | 2%
COc1cccc(-c2csc(NC(C)=O)n2)c1
→ . | -25%
O=S(=O)(c1cccc(-c2nnc(SCc3ccc(Cl)cc3)o2)c1)N1CCCCC1
→ . | -27%
Nc1c(C(=O)c2ccc(Cl)cc2)oc2ccccc12
→ -25% | -12%
CC1CCCN(C(=O)c2cccc(S(=O)(=O)Nc3cc(C(F)(F)F)ccc3Cl)c2)C1 (stereo not given)
→ i | -12%
CCOc1ccccc1NC(=S)N(Cc1cc2ccc(C)cc2[nH]c1=O)CC1CCCN1CC (stereo not given)
→ -13% | -13%
O=C(COc1ccccc1Cc1ccccc1)NCCCN1CCOCC1
→ -15% | -12%
COc1ccccc1OCCCCOc1ccccc1C(C)=O
→ -27% | -19%
COc1ccc(C(C(O)C(=O)c2c[nH]c3ccccc23)N2CCN(c3ccc(OC)cc3)CC2)cc1 (stereo not given)
→ i | -21%
O=C(NC(Cc1ccccc1)C(=O)Oc1ccc2c(C(F)(F)F)cc(=O)oc2c1)OCc1ccccc1 (stereo not given)
→ -16% | -3%
N#Cc1cccc(Nc2ncnc3c2cnn3-c2cccc(Cl)c2)c1
→ -12% | -15%
Cc1ccc(CCC(=O)Nc2ccc(Cl)cc2)o1
→ i | -13%
COc1ccc(S(=O)(=O)N2CCN(C(=O)c3cccs3)CC2)cc1
→ . | -16%
CCOC(=O)CSC1=C(C#N)C(c2ccc(F)cc2)C(C(C)=O)=C(C)N1 (stereo not given)
→ -15% | -3%
CCCNC(=O)N1[C@H]2CC[C@@H]1C(C(=O)OC)=C(c1cccc(Cl)c1)C2
→ i | -7%
CC(=O)c1cccc(NC(=O)C(C)n2c(=O)cc(C)c3c(C)nn(-c4ccccc4)c32)c1 (stereo not given)
→ -14% | -4%
CCCC(=O)Nc1nc2ccc(NC(=O)c3ccccc3F)cc2s1
→ -23% | -24%
CC1CC(=O)C2=C(C1)Nc1nc3ccccc3n1C2c1cccnc1 (stereo not given)
→ -5% | -5%
Cc1cc(C)n(C(=O)Cc2cn3ccsc3n2)n1
→ . | -2%
O=C(CSc1ncc2c(n1)-c1cc(Cl)ccc1N(Cc1ccccc1F)S2(=O)=O)Nc1cccc(C(F)(F)F)c1
→ -11% | -6%
Cc1ccc(N(CC#N)C(=O)CS(=O)(=O)c2cccc([N+](=O)[O-])c2)cc1
→ ? | 7%
CC(=O)N1c2ccccc2C(=O)C1N1CCN(c2ccccc2)CC1 (stereo not given)
→ -9% | -4%
CCN1C(=O)c2ccccc2S(=O)c2ccc(C(=O)NCCN(CC(C)C)CC(C)C)cc21 (stereo not given)
→ i | -18%
c1ccc2c(c1)nnn2-c1ccncc1
→ -14% | -17%
CN1CCN(Cc2c(O)ccc3cc(-c4ccccn4)c(=O)oc23)CC1
→ -5% | -4%
Cc1ccc(CSc2ncc(Cl)c(C(=O)NCc3ccccc3)n2)cc1
→ -19% | -12%
CC(=O)N1c2ccccc2C(=O)C1N(C)c1ccc(C)cc1 (stereo not given)
→ -8% | -17%
Cc1nn2c(-c3ccco3)ccnc2c1-c1ccc(Br)cc1
→ -6% | -2%
O=C(CN1C(=O)NC2(CCCC2)C1=O)N1CCN(S(=O)(=O)c2ccccc2[N+](=O)[O-])CC1
→ -4% | -18%
O=C(/C=C/c1ccc(Cl)c([N+](=O)[O-])c1)c1cccnc1
→ -14% | -10%
COCCn1c(=O)[nH]c2cc(C(=O)NC3CCCCCC3)ccc2c1=O
→ -12% | 10%
CC(C)C(=O)Nc1ccccc1OCc1cc(=O)n2ccccc2n1
→ -10% | -20%
Cc1cc(C(=O)N/N=C2\CCCC(=O)C2)c(C)o1
→ -13% | 3%
CCN1CCN(c2cc3c(cc2F)c(=O)c(S(=O)(=O)c2ccccc2)cn3C)CC1
→ -1%&1% | -15%&-5%

Next results follow.
The line under a structure holds: Vaccinia mCherry | VACV Venus inh
CC(C)C[C@H]1CNC(=O)C(=O)N1C[C@@H]1CCCN1C[C@H](Cc1ccccc1)N1C[C@H](CC(C)C)N(CCc2ccccc2)C(=O)C1=O
→ -8% | -9%
Cc1ccc(C(=O)NCC(=O)OCC(=O)N(CC(C)C)c2c(N)n(Cc3ccccc3)c(=O)[nH]c2=O)cc1C
→ i | -8%
COc1ccc2c(c1)c(=O)oc1cc(O)ccc12
→ 3% | 6%
C=C(C)C(=O)Nc1cccc(C2=NOC3(C2)C[C@@H](C(N)=O)N(C(=O)c2ccc(Cl)cc2)C3)c1 (stereo not given in full)
→ -14% | -6%
O=C(CSc1nnc(COc2ccc(Cl)cc2)o1)N1c2ccccc2CCc2ccccc21
→ -29%[1.46 µM] | -29%
Cc1[nH]c2ccccc2c1C(=O)C(=O)N1CCN(C(=O)c2ccco2)CC1
→ i | -12%
O=C(Cc1ccc(O)cc1)NCCNC(=S)NCc1ccccc1
→ i | -1%
COc1ccccc1C/C(N)=N/O
→ -7% | -11%
O=C1c2cccc3cccc(c23)C(=O)N1OS(=O)(=O)c1ccc(Br)cc1
→ i | -2%
C=CCSC1=N/C(=C\c2ccsc2)C(=O)S1
→ . | -15%
Fc1cccc(NC(=S)Nc2cccnc2)c1
→ 8% | 6%
Cc1cc(C)cc(NC(=O)CN(c2cccc(C)c2C)S(=O)(=O)c2ccccc2)c1
→ 6% | 1%
Cc1ccc(-c2nc(=S)c3c(n2Cc2ccco2)CCCC3)cc1
→ . | 0%
N#C/C(=N\Nc1ccccc1)C(=N)N1CCOCC1
→ i | -9%
O=C(Cc1ccc(Cl)cc1)Nc1ccc(N2CCCC2)cc1
→ . | -9%
NC1=NC2(CCCCC2)n2c(nc3ccccc32)N1
→ . | -11%
COc1cccc(C2C3=C(N=c4s/c(=C\c5ccc(O)cc5)c(=O)n42)c2ccccc2CC3)c1OC (stereo not given)
→ i | -4%
O=C(CN1CCN(C(=O)C2CCCO2)CC1)Nc1ccc(Cl)cc1 (stereo not given)
→ i | -6%
O=C(CNC(=O)c1ccccc1)OC(C(=O)O)c1ccc(F)cc1 (stereo not given)
→ -14% | -10%
O=C(Nn1cnnc1)c1ccc(Br)s1
→ i | -9%
CCc1ccc(-c2[nH]c3c(c2-c2sc(C)c(C(=O)OC)c2O)c(=O)n(C)c(=O)n3C)cc1
→ -2% | -1%
Cc1cc(Br)ccc1SCC(=O)OCC(=O)N1CCN(C(=O)c2ccco2)CC1
→ -19%[1.46 µM] | -12%
COc1ccc(CC(=O)NCc2n[nH]c(=S)n2C)cc1
→ -1% | -3%
CCCCCCCCN1C(=O)[C@H](CC(=O)NCc2cccc(C(F)(F)F)c2)C[C@@]2(C(=O)OC)CCCCC=C12
→ -21% | -19%
C#CCOCCOCCOCCNc1nc(N2CCN(C(=O)[C@H]([C@@H](C)O)n3cc(CCCCN)nn3)CC2)nc(N2CCN(C(=O)[C@H](Cc3ccc(O)cc3)n3cc(CCO)nn3)CC2)n1
→ i | -6%
CCOc1cc(/C=C2\N=C(C)OC2=O)cc(Cl)c1OCC(=O)OC
→ i[7.34 µM] | 4%[7.34 µM]
C=C1C=C(C(F)F)n2ncc(C(=O)NCc3ccccc3)c2N1
→ -1% | -17%
CCN1CCC(O)(C(C(=O)OC)c2ccccc2)CC1 (stereo not given)
→ -25% | -2%
CCCS(=O)(=O)NC(=O)C1(C)CCCN(C(=O)c2ccc(C(=O)OC)cc2)C1 (stereo not given)
→ 22% | 3%
Cc1cccc(Nc2nc(N3CCN(C)CC3)nc(N)c2[N+](=O)[O-])c1
→ i | -5%

Random excerpt: five records from the list, in no set order.
The line under a structure holds: Vaccinia mCherry | VACV Venus inh
C#CCOCCOCCOCCNc1nc(N2CCN(C(=O)[C@H]([C@@H](C)O)n3cc(CCCCN)nn3)CC2)nc(N2CCN(C(=O)[C@H](Cc3ccc(O)cc3)n3cc(CCO)nn3)CC2)n1
→ i | -6%
CC(C)C[C@H]1CNC(=O)C(=O)N1C[C@@H]1CCCN1C[C@H](Cc1ccccc1)N1C[C@H](CC(C)C)N(CCc2ccccc2)C(=O)C1=O
→ -8% | -9%
O=C(CNC(=O)c1ccccc1)OC(C(=O)O)c1ccc(F)cc1 (stereo not given)
→ -14% | -10%
O=C(CN1CCN(C(=O)C2CCCO2)CC1)Nc1ccc(Cl)cc1 (stereo not given)
→ i | -6%
Cc1ccc(C(=O)NCC(=O)OCC(=O)N(CC(C)C)c2c(N)n(Cc3ccccc3)c(=O)[nH]c2=O)cc1C
→ i | -8%

One compound at a time, from the list above. Values in the order: Vaccinia mCherry | VACV Venus inh
Cc1[nH]c2ccccc2c1C(=O)C(=O)N1CCN(C(=O)c2ccco2)CC1 as listed: i | -12%
C=C1C=C(C(F)F)n2ncc(C(=O)NCc3ccccc3)c2N1 as listed: -1% | -17%
COc1ccc(CC(=O)NCc2n[nH]c(=S)n2C)cc1 as listed: -1% | -3%
Cc1cc(C)cc(NC(=O)CN(c2cccc(C)c2C)S(=O)(=O)c2ccccc2)c1 as listed: 6% | 1%

Further records:
The line under a structure holds: Vaccinia mCherry | VACV Venus inh
CCOc1ccc(NC(=O)CSc2ncc3c(n2)-c2cc(Cl)ccc2N(C)S3(=O)=O)cc1
→ -24% | -18%
CC(=O)Nc1cccc(-n2nnc(SCC(=O)Nc3ccc(F)c(Cl)c3)n2)c1
→ -8% | -4%
Cc1ccc(NC(=O)COC(=O)c2ccc3c(c2)OCCO3)cc1S(=O)(=O)N1CCOCC1
→ i | -5%
COCCOC(=O)C1=C(N)Oc2c(oc(CO)cc2=O)C1c1ccccc1F (stereo not given)
→ i | -17%
O=C(NCc1cccnc1)C(=O)NCC(c1ccco1)N1CCOCC1 (stereo not given)
→ -5% | -1%
COCCCN1C(=O)C(=O)/C(=C(/O)c2ccc(OC)cc2C)C1c1cccnc1 (stereo not given)
→ -11% | -13%
Cc1ccnc(NC(=O)c2ccc(NS(=O)(=O)/C=C/c3ccccc3)cc2)c1
→ i | -17%
CC1CCN(C2=NC(=O)/C(=C/c3ccccc3F)S2)CC1
→ -28% | -20%
COc1cccc(C(=O)Nc2ccc3nc(N4CCOCC4)cc(C)c3c2)c1
→ -8% | -5%
CCOC(=O)N1CCN(C(=O)C[C@@H]2C[C@@]3(C(=O)OCC)CCC=C3N(Cc3ccc4c(c3)OCO4)C2=O)CC1
→ 1% | -2%
CSc1ncccc1C(=O)OCC(=O)Nc1ccc(Cl)cn1
→ -13% | -2%
COc1ccc(OC)c(C(C)NC(=O)C(C)Cc2ccccc2)c1 (stereo not given)
→ -19% | -22%
O=C(O)c1ccc(C(=O)C(=O)c2ccccc2)cc1
→ i | 0%

Screening results from PubChem.
